Screening results from PubChem.
Rango release inh: prevents RanGTP from dissociating the Rango-importin beta complex. 340,000 compounds, 0.071% hits. Potency, µM (series often up to 46.1 µM), inactives show at the highest dose activity change, negative = inhibition. AID 540253. O95149+P62826. Biochemical FRET Rango-importin beta, RanGTP-induced dissociation; active means falling FRET ratio curve, often poorly fitted, with flat reads before Ran was added; inconclusive means other falling curves, or compound fluorescence or quenching; inactive means flat or rising ratio curve;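 further: potency means the concentration at half of the fitted maximal effect; % of control where 0% means no effect; nearly all actives have a fitted effect of over 45% in size; -100% = wells without RanGTP and RCC1; the record marks most hits as doubtful in a second field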
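Compounds sat 5 min at room temperature with 0.1 uM Rango biosensor plus 0.25 uM importin beta, then FRET pre-read. RanGTP-RCC1 (0.6 uM Ran, 2mM GTP, 0.2 uM RCC1) added for 45 min, and the CFP/YFP post-read measured blocked complex dissociation.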
GLA inh pH 4.5: blocks human alpha-galactosidase A at pH 4.5; P06280; purified enzyme, 4-MU-alpha-Gal fluorescence, pH 4.5; activity change, negative = inhibition, % at 105 µM; 230,000 tested, under 10 active; AID 1467; inconclusive = small, poorly fitted or top-dose-only inhibition, or a rising curve; inactive = flat fitted curve, though single readings scatter; no compound was filed as active;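 further: 0% = full activity with enzyme and -100% = basal without enzyme; dose as in the result columns while the protocol names 77 µM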
Target sequence (P06280 whole entry, looked up): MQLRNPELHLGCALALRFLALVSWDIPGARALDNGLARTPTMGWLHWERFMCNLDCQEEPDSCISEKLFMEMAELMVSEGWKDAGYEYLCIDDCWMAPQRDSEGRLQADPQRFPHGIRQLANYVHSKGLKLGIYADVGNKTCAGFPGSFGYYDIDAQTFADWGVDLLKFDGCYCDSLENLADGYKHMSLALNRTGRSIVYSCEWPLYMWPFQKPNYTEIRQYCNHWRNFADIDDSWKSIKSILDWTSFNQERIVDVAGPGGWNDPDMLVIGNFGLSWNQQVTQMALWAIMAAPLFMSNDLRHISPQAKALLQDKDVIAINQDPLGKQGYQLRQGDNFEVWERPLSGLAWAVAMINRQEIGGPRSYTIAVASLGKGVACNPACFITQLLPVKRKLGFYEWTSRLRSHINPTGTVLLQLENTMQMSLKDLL
Rango complex inh: inhibitors of Rango-importin beta complex formation | 340,000 compounds, 0.031% hits | Potency, µM (doses to about 92.2 µM), without a hit: top-dose inhibition of complex formation | Rango CFP/YFP FRET sensor + importin beta, 45 min | AID 540263; active = rising FRET ratio curve, often small or poorly fitted; inconclusive = mostly compound fluorescence or quenching in the first reads; inactive = flat curves in all reads;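 further: potency means the concentration at half of the fitted maximal effect; 0% = DMSO wells and 100% = buffer wells lacking importin beta; nearly all actives have a fitted effect of over 15% in size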
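FRET biosensor (snurportin 1 IBB flanked by EYFP and cerulean), 50 nM, with compound 5 min, then 0.125 microM importin beta in PBS, 1 mM DTT, 0.02% Tween-20, 0.1% BSA. CFP/YFP ratio read after 45 min at room temperature; pre-read flags interference.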
miR-21 FLuc: miR-21 reporter, rising signal; 340,000 tested, under 10 active; HeLa miR-21 FLuc reporter, luciferase, 48 h; Potency, µM (top dose mostly 38.3 µM), for the others: top-dose reporter change, positive = more light; active = well fitted rising curve with a large enough effect; inconclusive = small, poorly fitted or top-dose-only effect; inactive = no such curve, though single readings can be large or run the other way;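 further: % of control where 0% means no effect; miR-21 action dims this reporter so a rising signal means less miR-21 action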
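HeLa cells endogenously expressing miR-21, stably carrying CMV-driven firefly luciferase with a downstream miR-21 binding site, 2000 cells/well. Titrations up to approximately 40 uM, 48 hours; luciferase luminescence read.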
* = called active by the depositor; ? = inconclusive; . = not tested or not shown; & = joins results of further samples; [ ] = dose if it differs, or a comment. Only part of the results is shown, so the mix of outcomes need not match the whole.

SMILES | Rango release inh | GLA inh pH 4.5 | Rango complex inh | miR-21 FLuc
C#CCOCCOCCOCCNc1nc(N2CCN(C(=O)[C@H](CCC(=O)O)n3cc([C@@H](N)[C@H](C)CC)nn3)CC2)nc(N2CCN(C(=O)[C@H](CCC(=O)O)n3cc([C@@H](N)CC(N)=O)nn3)CC2)n1 | -8% | . | 0.4% | .
COc1cc(C(=O)NCc2cc3ccccc3n2C)cc(OC)c1OC | 5% | . | 2.0% | 12%
Cc1cccc(N2CCN(S(=O)(=O)c3cnc[nH]3)CC2)c1C | -2% | 1 | 0.0% | -8%
COc1ccc(C(=O)NC(=O)Nc2cc(C)ccn2)cc1 | 2% | -5 | -0.2% | -9%
O=C(c1cn(-c2ccccc2)nc1-c1cccnc1)N1CCCCC1 | -11% | 0 | -4.0% | -20%
CCOC(=O)Cn1c(=O)c2c(nc3n2CCCCN3c2ccc(OCC)cc2)n(C)c1=O | -11% | . | -0.7% | .
Cc1no[n+]([O-])c1COc1ccccc1/C=C1\NC(=S)NC1=O | -9% | -6 | 4.1% | -8%
COc1ccccc1NC(=O)Cc1nc(CCl)cs1 | -6% | -10 | 3.3% | -8%
COC(=O)C(C(=O)Nc1cccc(Cl)c1C)C1CCCC1 (stereo not given) | 6% | -1 | 0.5% | -2%
CCOC(=O)N1CCN(C(=O)CSc2ccc(-c3ccccc3OC)nn2)CC1 | -8% | 2 | 0.0% | 0%
CCOC(=O)C(NCCc1ccccc1F)(NC(=O)CC)C(F)(F)F (stereo not given) | ? | -1 | -1.7% | 2%
Cc1ccc(C2=NC3(CCCC3)NC2=S)cc1 | -3% | -4 | -9.6% | -37%
O=C(Nc1cccc(F)c1)NC1(C(=O)NCC2CCCO2)CCCCC1 (stereo not given) | 9% | . | -1.1% | -5%
CCN(Cc1ccccc1)C(=S)NC(=O)c1ccccc1Br | 19% | . | -2.3% | -5%
Clc1cccc(/C(Cc2nc3ccccc3[nH]2)=N\Nc2ccccc2)c1 | 0% | -7 | -2.8% | -40%
COc1ccccc1OCCn1c(C)c(C=O)c2ccccc21 | 22% | . | 4.7% | 12%
Cc1ccc(/C=C(\NC(=O)c2ccccc2)C(=O)N2CCCCC2)cc1 | 8% | . | 1.0% | -5%
COc1ccc2[nH]c3c(c2c1)CC(C)NC3=O (stereo not given) | -9% | . | 1.6% | 23%
CCC(c1nnnn1C(C)(C)C)N1CCN(C(=O)c2ccco2)CC1 (stereo not given) | 0% | . | -2.1% | -6%
COc1ccccc1CNC(=O)c1ccccc1OCc1ccc(F)cc1 | 18% | -1 | -3.5% | -3%
COc1ccc(S(=O)(=O)c2c(O)c3ccc(C(=O)Nc4ccc(F)cc4)cc3[nH]c2=O)cc1 | -4% | . | 0.3% | 0%
NS(=O)(=O)c1ccc(CNC(=O)C(Cc2ccccc2)NS(=O)(=O)c2ccccc2F)cc1 (stereo not given) | 4% | . | 0.3% | 0%
O=C(NC(=S)NCCc1ccccc1)c1cccc(Cl)c1 | -1% | . | 0.3% | -19%
O=[N+]([O-])c1cc(/C=N/n2cnnc2)ccc1N1CCCC1 | -19% | . | 6.4% | -13%
Cc1cc(-c2cc(C(=O)NCc3ccccc3)on2)nc(NCC2CC2)n1 | 1% | -1 | ? | 12%
CCOC(=O)N1CCN(C(=O)C2CCC(=O)N(CCc3ccccc3)C2)CC1 (stereo not given) | -11% | . | -0.7% | .
CC(=O)c1cccc(NC(=S)NC(=O)c2cncc(Br)c2)c1 | 22% | . | 0.7% | -20%
CCN(CC)CCOC(=O)c1ccc(NC(=O)c2ccc(Cl)c(S(=O)(=O)N3CCCCCC3)c2)cc1 | -18% | -8 | 1.3% | 23%
Cn1c(=O)c2sccc2n(Cc2ccccc2)c1=O | 1% | . | 2.8% | 0%
O=C(NCc1ccccc1)c1ccccc1NC(=O)C1CCCCC1 | 1% | . | -0.9% | -4%
CC(=O)c1sc(N/N=C\c2ccc(Br)cc2)nc1C | ? | -11 | ? | -84%
COc1ccc(NC(=O)CC2C(=O)N(c3ccc(OC)cc3)C(=O)N2Cc2ccc(OC)c(OC)c2)cc1 (stereo not given) | 17% | 5 | 2.3% | 0%&-8%
CC(=O)c1ccc(N2CCN(C(=O)CN(C)S(=O)(=O)c3cnc[nH]3)CC2)cc1 | -9% | 1 | -2.2% | -11%
CN1C(C(=O)NCc2ccco2)CC2Cn3c(nc4cc5ccccc5cc43)C21 (stereo not given) | 24% | 5 | -0.3% | -3%
CCc1ccc(NC(=O)C2CCN(c3ncnc4c3nc3n4CCCCC3)CC2)cc1 | 1% | . | -0.4% | -1%
CCOC(=O)/C(C(=O)Nc1ccccc1Br)=C1/NC(C)(C)Cc2ccccc21 | 1% | 3 | -2.7% | 0%
NS(=O)(=O)c1ccc(CNC(=O)c2cnccn2)cc1 | -3% | 6 | -0.2% | -2%
COCCn1c(-c2cccs2)nc2nc3ccccc3nc21 | ? | ? | ? | -9%
Cc1ccc(C(=O)CCC(=O)NCc2ccccc2)cc1 | 9% | . | 1.7% | 1%
O=C(Oc1cccc(NC2=NS(=O)(=O)c3ccccc32)c1)c1cccnc1 | -3% | 7 | 2.7% | 1%
O=c1[nH]c2ccc(F)cc2[nH]c1=O | -9% | -24 | -0.4% | -6%
COc1cc(C(=O)N(CCCO)Cc2cc3ccc(C)c(C)c3[nH]c2=O)cc(OC)c1OC | 7% | 1 | -2.9% | -10%
COc1cccc(CN2CCNC(=O)C2CC(=O)NC2CCOCC2)c1OC (stereo not given) | 7% | . | -4.9% | 0%
CCOc1ccccc1NC(=O)C1Cc2ccccc2CN1S(C)(=O)=O (stereo not given) | 14% | 0 | 0.2% | -15%
CN(CCN1CCOCC1)Cc1nc(-c2ccc3c(c2)OCO3)no1 | ? | -5 | -1.5% | -12%
COC(=O)c1ccc(C(=O)O)nc1 | 1% | 0 | 1.2% | 1%
CCOC(=O)N1CCC(NC(=O)c2cc3c(C)nc4ccccc4c3o2)CC1 | -11% | -5 | 5.8% | 22%
Cc1ccc(S(=O)(=O)N(C)C[C@@H]2Oc3ccc(NS(=O)(=O)c4ccccc4)cc3CC(=O)N([C@@H](C)CO)C[C@H]2C)cc1 | 9% | . | 2.5% | .
Cc1ccc(C(=O)NCC(=O)NC2CCCC2)cc1 | -12% | 2 | 0.1% | -11%
CN(CC(=O)NCCCN1CCOCC1)S(=O)(=O)c1ccc(Cl)cc1 | -9% | . | -1.5% | .
The results go on:
SMILES | Rango release inh | GLA inh pH 4.5 | Rango complex inh | miR-21 FLuc
CNC(=O)c1ccc(-c2sc3nc(N4CCOCC4)c4c(c3c2N)CC(C)(C)OC4)o1 | ? | 10 | ? | -5%
COc1cccc(C(=O)Nc2cccc3cccnc23)c1OC | 33% | . | 0.5% | -29%
CN(C)Cc1c(C(=O)N/N=C/c2cccc(OCc3c(F)cccc3Cl)c2)nnn1-c1nonc1N | 26% | . | 0.1% | 2%
CC(COc1ccccc1)N1CCC(CO)(CCc2ccccc2)CC1 (stereo not given) | 1% | -2 | -4.2% | -3%
O=c1c2[nH]c3ccc(F)cc3c2ncn1CCCN1CCOCC1 | -1% | 3 | 0.1% | -15%
COc1ccc(C)cc1N(CC(=O)N/N=C/c1ccccc1C(=O)O)S(=O)(=O)c1ccccc1 | -1% | -5 | 0.4% | -3%
COc1ccc(CN2CCC(CO)(Cc3ccccc3)CC2)cc1Cn1cccn1 | -10% | -1 | 0.4% | -3%
CC(Oc1ccccc1)C(=O)Nc1cc(Cl)ccc1-n1cncn1 (stereo not given) | -7% | . | -2.4% | .
COc1ccc(OC)c(N(CC(=O)NCCSCc2ccco2)S(=O)(=O)c2ccccc2)c1 | -6% | . | -2.1% | 4%
Cc1ccc(C)c(NC(=O)CCn2nc(C)cc2C)c1 | -19% | -2 | 1.0% | -2%
CCOc1cccc(OCCNC2CCCC2)c1 | 19% | -5 | -3.1% | -9%
Cc1ccc(C(=O)NCC(C)(C)O)cc1 | 12% | -3 | 1.5% | -5%
Cc1noc(C)c1C(=O)OCC(=O)NC1CCCCC1C (stereo not given) | 3% | . | 6.6% | .
COc1cccc(N2CC(O)=C(c3nc4ccccc4c(=O)[nH]3)C2=N)c1 | -4% | 5 | 2.0% | 3%
O=C(COC(=O)/C=C/c1cccc(Cl)c1)NCCc1ccc(Cl)cc1Cl | 1% | 4 | 6.7% | -1%
CCOc1ncccc1C(=O)N1CCN(S(=O)(=O)c2cccs2)CC1 | 2% | . | 3.4% | .
O=C(Nc1ccc(S(=O)(=O)Nc2nccs2)cc1)c1ccc(N2C(=O)c3ccccc3C2=O)cc1 | -8% | 8 | ? | -1%
COc1ccc(C2C3=C(CCCC3=O)NC3=C2C(=O)c2ccccc23)cc1 (stereo not given) | -6% | -9 | -2.2% | 2%
Cc1ccccc1C(=O)N1CCC(C(=O)Nc2ccc(F)cc2)CC1 | 1% | -1 | -1.2% | -1%
O=C(CCNc1n[nH]c(=O)[nH]c1=O)N/N=C\c1cccc(OCc2ccccc2)c1 | -7% | 5 | -0.9% | -27%

Laid out differently: results already given
SMILES	Rango release inh	GLA inh pH 4.5	Rango complex inh	miR-21 FLuc
CC(Oc1ccccc1)C(=O)Nc1cc(Cl)ccc1-n1cncn1 (stereo not given)	-7%	.	-2.4%	.
COc1ccc(OC)c(N(CC(=O)NCCSCc2ccco2)S(=O)(=O)c2ccccc2)c1	-6%	.	-2.1%	4%
Cc1ccc(C)c(NC(=O)CCn2nc(C)cc2C)c1	-19%	-2	1.0%	-2%
CCOc1cccc(OCCNC2CCCC2)c1	19%	-5	-3.1%	-9%
Cc1ccc(C(=O)NCC(C)(C)O)cc1	12%	-3	1.5%	-5%
Cc1noc(C)c1C(=O)OCC(=O)NC1CCCCC1C (stereo not given)	3%	.	6.6%	.
COc1cccc(N2CC(O)=C(c3nc4ccccc4c(=O)[nH]3)C2=N)c1	-4%	5	2.0%	3%
O=C(COC(=O)/C=C/c1cccc(Cl)c1)NCCc1ccc(Cl)cc1Cl	1%	4	6.7%	-1%
CCOc1ncccc1C(=O)N1CCN(S(=O)(=O)c2cccs2)CC1	2%	.	3.4%	.
O=C(Nc1ccc(S(=O)(=O)Nc2nccs2)cc1)c1ccc(N2C(=O)c3ccccc3C2=O)cc1	-8%	8	?	-1%
COc1ccc(C2C3=C(CCCC3=O)NC3=C2C(=O)c2ccccc23)cc1 (stereo not given)	-6%	-9	-2.2%	2%
Cc1ccccc1C(=O)N1CCC(C(=O)Nc2ccc(F)cc2)CC1	1%	-1	-1.2%	-1%
O=C(CCNc1n[nH]c(=O)[nH]c1=O)N/N=C\c1cccc(OCc2ccccc2)c1	-7%	5	-0.9%	-27%

(listing goes on)
SMILES | Rango release inh | GLA inh pH 4.5 | Rango complex inh | miR-21 FLuc
CC(=O)Oc1ccc2nc(/C=C/c3ccc(C=O)cc3)oc(=O)c2c1 | 1% | . | 4.2% | 1%
COc1cccc(C(=O)NCCN2CCOCC2)c1 | 2% | -4 | 1.2% | -7%
Cc1cc(Oc2cc(N)cc([N+](=O)[O-])c2)ccc1Cl | -4% | -11 | 2.5% | -2%
CC(C)CC(=O)N=C1SC2CS(=O)(=O)CC2N1CCc1ccccc1 (stereo not given) | 11% | -14 | 7.9% | -3%
COC(=O)C1C(c2ccc(Cl)cc2)NC(c2ccc(Cl)cc2)C(C(=O)OC)S1(=O)=O (stereo not given) | -8% | -5 | -4.5% | 1%
O=[N+]([O-])c1cccc(-c2cc(-c3cc(Br)ccc3O)[nH]n2)c1 | 8% | . | 6.1% | 26%
Fc1ccc(-c2csc(-c3ccccn3)n2)cc1F | -17% | -2[21.1 µM] | -0.6% | -27%
Cc1cc(C)cc(NC(=O)CN(Cc2ccccc2)S(C)(=O)=O)c1 | -5% | -5 | 2.9% | -7%
CCOC(=O)Cc1csc(NC(=O)NC2(C(F)(F)F)Oc3cc(Cl)c(Cl)cc3O2)n1 | -6% | 5 | 2.3% | -12%
COCCSc1ncnc2c1oc1nc3c(cc12)COC(C)(C)C3 | 11% | 3 | -2.4% | -24%
